# p53 reactivation: restores transcriptional activity of mutant p53; hit rate 0.063% among 320,000; Potency, µM (titrated, usually from 92.2 µM), inactives show top-dose activity change, positive = activation, usual class: activators; H1299 p53-A138V BP100-luciferase reporter, luminescence, 24 h; AID 504706; note: % of control where 0% means no effect; nearly all actives have a fitted effect of over 45% in size
#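 p53-null H1299 cells stably carrying temperature-sensitive p53-A138V and a BP100-luciferase reporter were pinned with compounds (4-point, 1:5 series) and held 24 hrs at 37 deg C. Luminescence was read 10 min after detection reagent.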
# ELG1 genotoxic: genotoxicity induction in ELG1-luciferase HEK293T cells; HEK293T ELG1-luciferase reporter, luminescence, 16 h; Potency, µM (titrated, usually from 46 µM), for inactives: at the highest dose activity change, positive = activation, actives largely listed as activators; hit rate 1.3% among 330,000; note: % of control where 0% means no effect; nearly all actives have a fitted effect of over 60% in size
#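 Reporter readout depends on ELG1 protein level, which increases with genetic stress. After 16 hr compound exposure at 37 °C, luciferase activity was quantified using ONE-Glo.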
# FLuc counter: inhibits or activates purified firefly luciferase, miR-21 counter-screen; Potency, µM (top dose mostly 57.5 µM), inactives show top-dose activity change, negative = inhibition, hits mostly inhibitors; P08659; hit rate 6.9% among 360,000; purified FLuc, Km substrates, luminescence inhibition;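 note: plate controls were vehicle for no effect and reference inhibitor for full effect; nearly all actives have a fitted effect of over 55% in size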
# Target sequence (P08659 whole entry, looked up): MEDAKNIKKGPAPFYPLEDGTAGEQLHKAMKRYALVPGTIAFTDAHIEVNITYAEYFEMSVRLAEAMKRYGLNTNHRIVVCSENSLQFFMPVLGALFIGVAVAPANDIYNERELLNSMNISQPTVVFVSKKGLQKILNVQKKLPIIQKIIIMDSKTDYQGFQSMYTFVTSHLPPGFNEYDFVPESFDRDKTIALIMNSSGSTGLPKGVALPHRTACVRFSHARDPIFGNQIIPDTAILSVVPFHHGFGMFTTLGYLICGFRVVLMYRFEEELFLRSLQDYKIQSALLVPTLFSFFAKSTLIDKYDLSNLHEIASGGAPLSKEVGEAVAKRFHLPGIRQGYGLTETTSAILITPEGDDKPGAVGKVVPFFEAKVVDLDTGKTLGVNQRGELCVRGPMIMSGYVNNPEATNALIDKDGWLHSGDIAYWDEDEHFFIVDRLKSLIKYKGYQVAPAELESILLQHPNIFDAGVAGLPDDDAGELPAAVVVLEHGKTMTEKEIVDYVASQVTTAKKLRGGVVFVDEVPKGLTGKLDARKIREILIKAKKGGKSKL
#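 Purified P. pyralis luciferase (10nM final) with 10uM D-luciferin and 10uM ATP (Km levels) in 50mM Tris acetate pH 7.5, 10mM Mg acetate, 0.01% Tween-20, 0.05% BSA; qHTS 6-point titration, ~60 µM downward; luminescence read.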
# MBNL1 CUG block: blocks human MBNL1 binding to CUG repeat RNA | Q9NR56 | TR-FRET MBNL1-His/biotin-(CUG)12 binding, 665/545 ratio | Potency, µM (doses to about 57.5 µM), for the others: at the highest dose activity change, negative = inhibition, hits mostly inhibitors | hit rate 0.036% among 280,000; active = well fitted inhibition curve with a large enough effect in the signal ratio, with a control signal flat, not every such curve was filed as active; inconclusive = small, poorly fitted or top-dose-only effect, or effect the other way, or a change in a side signal; inactive = no such curve, though single readings can be large or run the other way; the % refers to the signal ratio; note: % is set by controls: 0 for no effect and ±100 for the full control effect
# Target sequence (Q9NR56 whole entry, looked up): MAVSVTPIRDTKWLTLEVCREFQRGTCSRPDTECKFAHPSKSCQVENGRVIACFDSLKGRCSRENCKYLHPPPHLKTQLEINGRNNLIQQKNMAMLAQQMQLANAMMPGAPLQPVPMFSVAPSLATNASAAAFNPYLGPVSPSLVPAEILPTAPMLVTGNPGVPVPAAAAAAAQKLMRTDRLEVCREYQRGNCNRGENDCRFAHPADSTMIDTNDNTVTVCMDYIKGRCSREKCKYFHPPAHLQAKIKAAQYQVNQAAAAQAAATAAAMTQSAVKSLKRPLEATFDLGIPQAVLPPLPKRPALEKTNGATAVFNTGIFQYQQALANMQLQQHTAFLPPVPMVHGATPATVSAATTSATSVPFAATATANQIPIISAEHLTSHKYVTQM
#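 Compounds (final 92 nM to 58 uM) are added to His-tagged MBNL1 and biotin-(CUG)12, then terbium anti-His antibody and streptavidin-XL665 (5 nM final). After 60 min at room temperature, the 665/545 nm ratio is read.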
# BRCA1 expr up: BRCA1 expression activation. hit rate 1.1% among 380,000. Potency, µM (series often up to 46.1 µM), without a hit: at the highest dose activation, usual class: activators. MCF7-BRCA1-FFLuc reporter, luminescence, 48 h; response scale: scaled: vehicle 0%, 10 µM genistein 100%. AID 624202; note: nearly all actives have a fitted effect of over 80% in size; some results filed as inactive show a strong effect at the top dose
#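 Luminescence from a BRCA1-driven firefly luciferase in MCF7 cells was the read-out, taken 15 min after substrate addition following 48 h compound exposure at 37 °C. Data were normalized to a 10 microM genistein control and DMSO vehicle.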
# uPA surface inh: cell surface uPA generation inhibition. cell surface uPA generation assay, qHTS. Potency, µM (series often up to 38.3 µM), for inactives: at the highest dose activity change, negative = inhibition, actives largely listed as inhibitors. hit rate 0.31% among 330,000. AID 540303; active = well fitted inhibition curve with a large enough effect; inconclusive = small, poorly fitted or top-dose-only effect; inactive = no such curve, though single readings can be large or run the other way; tested in mouse RAW 264.7 cells; note: % is set by controls: 0 for no effect and ±100 for the full control effect; nearly all actives have a fitted effect of over 55% in size
# Rab9 promoter act: activators of Rab9 promoter | Huh7 Rab9 promoter-luciferase reporter, luminescence, 24 h | Potency, µM (highest dose often 9.22 µM), without a hit: at the top dose activation, negative = inhibition, hits mostly activators | hit rate 2.8% among 320,000 | AID 485297; note: % of control where 0% means no effect; nearly all actives have a fitted effect of over 60% in size
#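 Using Huh7 cells stably transfected with Rab9 promoter–luciferase, compounds were incubated 24 h at 37 °C, 5% CO2; luciferase luminescence was read 10 min after reagent addition.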
# NPC1 promoter act: activators of NPC1 promoter; Huh7 NPC1 promoter luciferase reporter, 24 h; Potency, µM (doses to about 9.22 µM), inactives show top-dose activation, actives largely listed as activators; hit rate 2.4% among 320,000; AID 485313;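 note: % of control where 0% means no effect; nearly all actives have a fitted effect of over 60% in size; reporter is driven by a mutant NPC1 promoter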
#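 Luminescence read-out of NPC1 promoter-driven luciferase in stably transfected Huh7 cells; compounds delivered in DMSO and left 24 h at 37C, 5% CO2, qHTS titration format.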
# Starred values were filed as active, the others as inactive; u = inconclusive; x = not tested or not shown; & = joins results of further samples; [ ] = dose if it differs, or a comment. Unless noted, calls come from the whole dose curve; as a rule, active = well fitted curve in the direction sought with a large enough effect; inconclusive = small, poorly fitted or top-dose-only effect, or another doubt; inactive = no such curve, though single readings can be large; an effect the other way counts as inactive or inconclusive. Potency is the fitted concentration of half-maximal effect. These rows are one share of the data; count on the stated rates, not on these rows.
compound,BRCA1 expr up,ELG1 genotoxic,FLuc counter,uPA surface inh,Rab9 promoter act,p53 reactivation,NPC1 promoter act,MBNL1 CUG block
c1ccc(COc2ccc(OCCCN3CCCC3)cc2)cc1,-37%,u,3.4µM*,-3%,0.63µM*,u,1µM*,1%
CCC(C)NCCCOc1c(C)cc(C)cc1Br (centres undefined),-54%,-2%,5%,-3%,-7%,-7%,-3%,-4%
CC1CC(C)CN(CCCCOc2ccc([N+](=O)[O-])cc2)C1 (centres undefined),-18%,-3%,0%,0%,-4%,-7%,0%,u
COC(=O)C1=C(C)NC(C)=C(C(=O)OCC(C)C)C1c1ccccc1[N+](=O)[O-] (centres undefined),-60%,x,x,u,x,x,x,x
CCC(C)NCCCOc1ccc([N+](=O)[O-])cc1 (centres undefined),2%,1%,1%,4%,-5%,-16%,0%,14%
C=CC(C)(O)CCCC(C)CCCC(C)CCCC(C)C (centres undefined),-3%,3%,-2%,9%,-8%,-3%,-6%,x
O=C(O)c1cccc(Cl)n1,7%,0%,3%,4%,8%,-1%,0%,0%
O=C1N=C(O)CN1/N=C/c1ccc(-c2ccc([N+](=O)[O-])cc2)o1,0%,x,x,u,0%[46.1 µM],x,3%[46.1 µM],u
COCCNCC(=O)Nc1nc(C)cs1,-8%,1%,1%,-12%,-4%,28%,-3%,-1%
COc1cccc(CNCc2cccc(Br)c2)c1OC,30%,-4%,-1%,-4%,-1%,-5%,2%,1%

# Molecules listed so far with a nitro group on carbon (4):
compound,BRCA1 expr up,ELG1 genotoxic,FLuc counter,uPA surface inh,Rab9 promoter act,p53 reactivation,NPC1 promoter act,MBNL1 CUG block
CC1CC(C)CN(CCCCOc2ccc([N+](=O)[O-])cc2)C1 (centres undefined),-18%,-3%,0%,0%,-4%,-7%,0%,u
COC(=O)C1=C(C)NC(C)=C(C(=O)OCC(C)C)C1c1ccccc1[N+](=O)[O-] (centres undefined),-60%,x,x,u,x,x,x,x
CCC(C)NCCCOc1ccc([N+](=O)[O-])cc1 (centres undefined),2%,1%,1%,4%,-5%,-16%,0%,14%
O=C1N=C(O)CN1/N=C/c1ccc(-c2ccc([N+](=O)[O-])cc2)o1,0%,x,x,u,0%[46.1 µM],x,3%[46.1 µM],u

# More compounds
compound,BRCA1 expr up,ELG1 genotoxic,FLuc counter,uPA surface inh,Rab9 promoter act,p53 reactivation,NPC1 promoter act,MBNL1 CUG block
O=C1/C(=C\c2cccnc2)CN(Cc2ccccc2)C/C1=C\c1cccnc1,-107%[inhibitor],-10%,0%,-4%,-31%[inhibitor],-37%[inhibitor],-20%,u
O=C1c2ccccc2C(=O)C1(O)O,x,-3%,7%,x,-3%,12%,2%,x
C(C#CCCCCCCCCC[n+]1ccccc1)#CCCCCCCCCC[n+]1ccccc1,-82%&-97%,-9%,5%,-15%&-8%,-34%[inhibitor],-31%[inhibitor],-33%[inhibitor],-8%
COCC(=O)O[C@]1(CCN(C)CCCc2nc3ccccc3[nH]2)CCc2cc(F)ccc2[C@@H]1C(C)C,-36%,-2%,-2%,u,-41%[inhibitor][46.1 µM],4%,-35%[inhibitor][46.1 µM],4%
C[n+]1ccc(/C=C/c2c[nH]c3ccccc23)cc1,-37%,-3%,-2%,-2%,-46%[inhibitor],0%,-37%[inhibitor],u
O=C1CCc2ccccc2O1,28%,-1%,x,-5%,x,-4%,x,x
Cn1c(-c2ccc(Cl)cc2)cnc1NCc1cc2c(cc1[N+](=O)[O-])OCO2,-39%,-5%,-2%,3%,-5%,-11%,-2%,u
COC1C(OC(=O)/C=C/C=C/C=C/C=C/C(=O)O)CCC2(CO2)C1C1(C)OC1CC=C(C)C (centres undefined) (tested in a mixture with another compound),-18%,x,x,-5%,x,x,x,x
CC1(C)CC(NNCCC#N)=CC(=[N+]2CCCC2)C1,-7%,0%,1%,-5%,-2%,1%,-1%,12%
COCCNCCCCOc1ccc(C)cc1[N+](=O)[O-],-3%,-3%,0%,-1%,-8%,-18%,-1%,-1%

# (continued)
compound,BRCA1 expr up,ELG1 genotoxic,FLuc counter,uPA surface inh,Rab9 promoter act,p53 reactivation,NPC1 promoter act,MBNL1 CUG block
CC[n+]1cc(C)ccc1/C=C/c1ccc(N(C)C)cc1,-51%,-9%,1%,u,-34%[inhibitor],8%,-28%,u
CC[n+]1c(/C=C/c2c[nH]c3ccccc23)ccc2cc(C)ccc21,-56%,0%,-11%,-17%,-29%,0%,-59%[inhibitor],x
O=C(O[C@@H](C(=O)O)[C@@H](OC(=O)c1ccccc1)C(=O)O)c1ccccc1,-8%,-1%,1%,13%,-2%,-5%,-1%,x
C=C1CC[C@H](O)C/C1=C/C=C1\CCC[C@]2(C)[C@@H]([C@H](C)/C=C/[C@H](C)C(C)C)CC[C@@H]12,12%,2%,3%,-1%,-1%,1%,1%,x
CS(=O)(=O)c1ccc([C@@H](O)[C@@H](CO)NC(=O)C(Cl)Cl)cc1,13%,-17%,0%,-6%,-6%,3%,0%,x
CNc1nc(N/N=C/c2cc3c(cc2[N+](=O)[O-])OCO3)nc(Nc2ccccc2)n1,-88%[inhibitor],-15%,5%,u,-6%,-13%,-12%,-10%
Nc1ncnc2c1ncn2[C@@H]1O[C@H](CO)C[C@@H]1O,x,x,-1%,x,-3%,x,-8%,2%
CCN(CC)C1=CC(=[N+]2CCCC2)CC(C)(C)C1,-77%,0%,-1%,-16%,-38%[inhibitor],1%,-27%,-6%
O=S(=O)(c1ccccc1)N(CC(F)(F)F)c1ccc(C(O)(C(F)(F)F)C(F)(F)F)cc1,0%&-65%,x,x,x,x,x,x,x
CC(=O)N1CCC(=NNc2nc3ccccc3[nH]2)CC1,-2%,3%,u,2%,-6%,21%,1%,-11%

# Profiles as entered above.
# CC[n+]1cc(C)ccc1/C=C/c1ccc(N(C)C)cc1 as listed: BRCA1 expr up = -51%; ELG1 genotoxic = -9%; FLuc counter = 1%; uPA surface inh = u; Rab9 promoter act = -34%[inhibitor]; p53 reactivation = 8%; NPC1 promoter act = -28%; MBNL1 CUG block = u
# CNc1nc(N/N=C/c2cc3c(cc2[N+](=O)[O-])OCO3)nc(Nc2ccccc2)n1 as listed: BRCA1 expr up = -88%[inhibitor]; ELG1 genotoxic = -15%; FLuc counter = 5%; uPA surface inh = u; Rab9 promoter act = -6%; p53 reactivation = -13%; NPC1 promoter act = -12%; MBNL1 CUG block = -10%

# More records
compound,BRCA1 expr up,ELG1 genotoxic,FLuc counter,uPA surface inh,Rab9 promoter act,p53 reactivation,NPC1 promoter act,MBNL1 CUG block
CC1(C)CC(N2CCN(c3ccccc3)CC2)=CC(=[N+]2CCCC2)C1,-85%,-18%,6%,u,-42%[inhibitor],-6%,-18%,-2%
CN(Cc1ccccc1)C1=CC(=[N+]2CCCC2)CC(C)(C)C1,-59%,-11%,3%,-17%,-41%[inhibitor],-7%,-35%[inhibitor],-7%
Cc1sc2c3ccsc3ccc2[n+]1C,-18%,2%,u,3%,0%,0%,5%,-20%
CCC(C(=O)OCCOCCN(CC)CC)c1ccccc1 (centres undefined),-1%,-12%,2%,-4%,2%,-1%,5%,-8%
CN(Cc1ccccc1)Cc1ccccc1F,2%,2%,-3%,-9%,-5%,-28%,-12%,-13%
COCCNCCOc1ccccc1-c1ccccc1,-12%,-13%,1%,-2%,1%,-2%,0%,-13%
CC(=O)SCC(Cc1ccccc1)C(=O)NCC(=O)OCc1ccccc1 (centres undefined),x,x,-7%,x,-4%,x,-3%,-1%
O=C(C[n+]1cccc(O)c1)Nc1ccc(Br)cc1,3%,2%,u,x,0%,1%,-5%,6%
Cc1ccc([N+](=O)[O-])c(OCCN2CCCCCC2)c1,8%,-1%,3%,-6%,-3%,-4%,3%,x
CCN1/C(=C/c2ccc3ccc(C)cc3[n+]2CC)Sc2ccccc21,-66%,-2%,u,-8%,-22%,20%,-14%,u

# New compounds follow.
compound,BRCA1 expr up,ELG1 genotoxic,FLuc counter,uPA surface inh,Rab9 promoter act,p53 reactivation,NPC1 promoter act,MBNL1 CUG block
CC1=[N+](C)c2c(ccc3cccnc23)C1(C)C,-65%,-10%,-6%,-20%,-32%[inhibitor],-1%,-33%[inhibitor],34%[activator]
CCN(CC)CCOC(=O)C(Cc1cccc2ccccc12)CC1CCCO1 (centres undefined),-18%,-8%,1%,-2%,-14%,-8%,-9%,-6%
CCOC(=O)c1c(-c2ccc(C)cc2)csc1NC(=O)CCN1CC(C)OC(C)C1 (centres undefined),-72%,-8%,-2%,5%,-9%,-3%,0%,x
Cn1c(-c2ccc3c(c2)OCO3)cnc1NCc1cccc(Cl)c1,11%,0%,u,x,6%,u,2%,-18%
CCCCCC1C(=O)CCC1CC(=O)OC (centres undefined),9%,x,x,3%,x,x,x,x
CCC(CC)NCc1ccc2c(c1)c1ccccc1n2CC,-74%,-5%,-1%,u,-7%,-8%,-4%,-6%
Cc1ccc(C(C)C)c(OCCNCCc2ccccc2)c1,-70%,0%,-2%,-5%,-7%,-3%,-8%,0%
Cn1c(=O)[nH]c2ncn(C)c2c1=O,-10%,x,x,8%,-1%[46.1 µM],x,1%[46.1 µM],x
C[N+](C)(C)c1ccc(/C=N/Nc2nc(Cl)c(C#N)c(Cl)c2Cl)cc1,-54%,2%,0%,-1%,-3%,14%,0%,u
